VDR inh = Inhibitors of the vitamin D receptor (VDR): qHTS | Vitamin D3 receptor (Homo sapiens), P11473 | VDR-SRC2-3 peptide fluorescence polarization, 2 h | 0.93% of 400,000 active | Potency, µM, inactives show max response, negative = inhibition, hits mostly inhibitors | AID 504847, 2011; active means well fitted inhibition curve with a large enough effect; inconclusive means small, poorly fitted or top-dose-only effect, or another doubt; inactive means no such curve, though single readings can be large or run the other way; further: series mostly up to about 120 µM
Target sequence (P11473 whole entry, looked up): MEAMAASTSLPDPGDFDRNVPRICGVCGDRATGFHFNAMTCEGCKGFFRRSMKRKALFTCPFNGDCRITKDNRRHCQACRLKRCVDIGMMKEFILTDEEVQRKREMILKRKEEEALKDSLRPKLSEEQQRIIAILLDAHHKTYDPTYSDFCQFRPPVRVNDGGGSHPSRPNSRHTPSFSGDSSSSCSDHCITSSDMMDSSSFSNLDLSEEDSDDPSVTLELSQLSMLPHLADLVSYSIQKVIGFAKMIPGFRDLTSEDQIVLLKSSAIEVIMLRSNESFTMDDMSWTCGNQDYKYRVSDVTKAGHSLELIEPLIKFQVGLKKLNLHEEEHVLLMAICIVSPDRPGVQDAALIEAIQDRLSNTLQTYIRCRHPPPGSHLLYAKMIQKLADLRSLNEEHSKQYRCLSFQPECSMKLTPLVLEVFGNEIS
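Fluorescence polarization assay measuring small-molecule disruption of VDR binding to the coregulator peptide SRC2-3. Compounds were pin-transferred (23 nl) into the reagent mix and incubated 2 h at room temperature before reading.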
The depositor's hits bear a star; ? = inconclusive; & = joins results of further samples; [ ] = remark or other dose. On the % scale 0 is the no-effect control and ±100 the full control effect; potency means the concentration at half of the fitted maximal effect. Some of the compounds tested; the hit share may differ from the screen's.

VDR inh,structure
9%,CC(C)(CC(=O)NCc1ccc(Cl)cc1Cl)CC1=NS(=O)(=O)c2ccccc2N1
-11%,Nn1c(Cc2cccc3ccccc23)nnc1SCCOc1ccc(Br)cc1
-23%,O=C(Nc1ccc(F)cc1)c1cccnc1NCCc1ccccc1
0%,O=C(OCC(=O)N1CCN(C(=O)c2ccco2)CC1)c1ccccc1O
-12%,CC(C)(C)OC(=O)N(Cc1ccccc1)Cc1ccccc1OCc1cccc(NC(=O)c2ccccc2)c1
-16%,CCc1ccc(NC(=O)CSc2nnc(-c3cnccn3)n2Cc2ccco2)cc1
-14%,C=C(C)C(=O)Oc1ccc(N2C(=O)CCC2=O)cc1
-20%,COC(=O)c1cccc(NC(=O)CN2C(=O)c3ccccc3C2=O)c1
4%,O=C(Cn1[nH]c(=O)c2ccccc2c1=O)OCC(=O)c1ccccc1
-12%,CCS(=O)(=O)N1Cc2ccccc2CC1C(=O)Nc1ccc(NC(C)=O)cc1 (centres undefined)

Arranged by value in VDR inh (falling): 4 from the list above.
VDR inh,structure
4%,O=C(Cn1[nH]c(=O)c2ccccc2c1=O)OCC(=O)c1ccccc1
0%,O=C(OCC(=O)N1CCN(C(=O)c2ccco2)CC1)c1ccccc1O
-12%,CC(C)(C)OC(=O)N(Cc1ccccc1)Cc1ccccc1OCc1cccc(NC(=O)c2ccccc2)c1
-20%,COC(=O)c1cccc(NC(=O)CN2C(=O)c3ccccc3C2=O)c1

Further structures.
VDR inh,structure
4%,O=C(Cn1c(=O)c(=O)n(Cc2ccccc2)c2ccc(Cl)cc21)NCC1CCCO1 (centres undefined)
-6%,CCOc1ccc(NC(=O)c2ccc(-c3cccc(Cl)c3C)o2)cc1
-16%,Cc1ccc(/C=C/C(=O)NCc2ccc3c(c2)OCO3)o1
6%,CCOC(=O)COc1ccc2c(=O)c(-c3ccc(OC)c(OC)c3)c(C(=O)OCC)oc2c1
0%,Cn1cnc2c1c(=O)n(Cc1ccc(F)cc1Cl)c(=O)n2C
-2%,O=C(COC(=O)c1cc([N+](=O)[O-])ccc1N1CCOCC1)Nc1cc(F)ccc1F
-3%,NC(=O)[C@H]1CC2(CC(c3cccc(NC(=O)CC(c4ccccc4)c4ccccc4)c3)=NO2)CN1C(=O)CC(c1ccccc1)c1ccccc1 (some centres undefined)
4%,NC(=O)c1cc(S(=O)(=O)NCCc2ccc(S(N)(=O)=O)cc2)cs1
-27%,O=C(COC(=O)c1ccccn1)c1cccc(Br)c1
-24%,CCC(=O)N1CCc2cc(S(=O)(=O)NC(Cc3ccccc3)C(=O)NCc3ccccc3OC)ccc21 (centres undefined)
-11%,Cc1ccc(Cl)cc1Nc1nc(N2CCOCC2)nc(N2CCOCC2)n1
-5%,CCSc1nnc(NC(=O)c2ccc3ccccc3n2)s1
9%,Cc1ccc(C)c(NC(=O)C2CCCN(c3nc4ccccc4s3)C2)c1 (centres undefined)
-5%,CN1C2CCC1CC(NS(=O)(=O)c1ccc(C#N)cc1)C2 (centres undefined)
-4%,CC(C)NC(=O)CCc1nnc(Cc2cccc(C(F)(F)F)c2)o1
4%,CCOC(=O)C1(Cc2cccc(OC)c2)CCCN(C(=O)CCc2cccnc2)C1 (centres undefined)
-4%,COc1ccc(NC(=O)c2cc(-c3ccccc3OC)on2)cc1
5%,COC(=O)c1sc2c(c1C)c(=O)n(-c1ccccc1)c(=O)n2CC(=O)Nc1cccc(C)c1
10%,Cc1nn(C(C)(C)C)c(OC(=O)c2ccco2)c1Sc1ccccc1
-6%,C=CCn1c(=O)n2ncnc2c2c3c(sc21)CCCC3
-1%,COc1ccc2oc(C(=O)OCC(=O)/C(C#N)=C(\C)N)c(C)c2c1
-24%,Cc1ccc(S(=O)(=O)Nc2ccc3ncccc3c2[N+](=O)[O-])cc1
-3%,CN(C)C(=O)NCc1ccc(S(N)(=O)=O)cc1
2%,COC(=O)[C@H](CCSC)NC(=O)Nc1cc(OC)cc(OC)c1
-11%,O=C(CN(c1ccc2c(c1)OCCO2)S(=O)(=O)c1ccccc1)NCc1ccc(Cl)cc1
0%,Cc1ccc(NC2(c3ccccc3)C(=O)c3ccccc3C2=O)cc1F
-1%,O=C(Nc1cccc(-c2cnc3ccccc3n2)c1)c1cccc(NC(=O)c2ccco2)c1
-7%,O=C(Cn1c(NCCO)nc2ccccc21)c1ccccc1
1%,COc1cc([C@@H]2c3cc4c(cc3[C@H](O)[C@H]3COC(=O)[C@@H]23)OCO4)cc(OC)c1OC
17%,COC(=O)CC1=C(C(=O)OC)C(c2ccc3c(c2Cl)OCO3)C(C#N)=C(N)O1 (centres undefined)
-6%,CCN1CCCC(OC(=O)c2cc(-c3ccc(C)cc3)nc3ccccc23)C1 (centres undefined)
?,O=C(NNc1nc2c(F)cc(F)cc2s1)C1COc2ccccc2O1 (centres undefined)
-7%,c1cn(CCCNc2ncnc3nc[nH]c23)cn1
6%,Cc1cc(C)c(C)c(OCC(=O)O/N=C(\N)c2cccnc2)c1
1%,CSc1ccccc1NC(=O)c1ccncc1
-6%,COCCNC(=O)C(C#N)c1nc2ccccc2nc1N1CCCCCC1 (centres undefined)
10%,Cc1cc(/C=C2\C(=N)N3N=CSC3=NC2=O)c(C)n1Cc1ccccc1
7%,COc1ccc(CCn2c(=N)c(C(=O)NCC3CCCO3)cc3c(=O)n4cccc(C)c4nc32)cc1 (centres undefined)
-2%,CCN1CCN(C(=O)Nc2ccc(OC)cc2OC)CC1
?,CC(C)N(C(=O)[C@H]1C[C@H](CC(=O)NCCc2ccccn2)C(=O)N2CCc3c([nH]c4cc(CCC(=O)N(C)C)ccc34)[C@]12C)C(C)C
-18%,CC(=O)c1ccc(NCC(=O)N2CCN(S(=O)(=O)c3ccccc3)CC2)cc1
-5%,CC(C)(C)c1cc(C(=O)NNC(=O)Nc2ccccc2)n(Cc2ccccc2)n1
4%,O=C(/C=C/c1ccc2c(c1)OCO2)c1ccc[nH]1
-3%,CCS(=O)(=O)c1nc(S(=O)(=O)c2ccc(C)cc2)c(N2CCCC2)s1
-4%,O=P(OC1CCCCC1)(OC1CCCCC1)C(O)c1cccnc1 (centres undefined)
4%,CCOC(=O)C1CCCN(CCC(=O)Nc2ccccc2)C1 (centres undefined)
-14%,O=C(c1scc2c1CCCC2)N1CCCCC1
-5%,C=C1C(C2(C)C=CC(=O)C(C)(C)C2CC(=O)OC)CC[C@@]2(C)C(c3ccoc3)OC(=O)C3OC132 (some centres undefined)
?,CCOc1cc(/C=C/c2cc(C(F)(F)F)[nH]c(=O)n2)ccc1O
6%,CCOC(=O)c1c(O)c2cccc3c2n(c1=O)CC3

Other compounds follow:
VDR inh,structure
20%,Cn1ccnc1C1CCCCN1C(=O)c1cc(COc2ccc(F)cc2F)on1 (centres undefined)
-10%,O=C(CSC1=NCCN1)NC12CC3CC(CC(C3)C1)C2
-9%,CCOC(=O)N1CCN(C(=O)C(C)NC(=O)c2ccco2)CC1 (centres undefined)
-2%,COc1cccc(NC(=S)N(CCCN2CCC(C)CC2)Cc2cccs2)c1
-2%,CN(CC(=O)Nc1c(Cl)cccc1Cl)C(=O)c1cc(S(=O)(=O)N(C)C)ccc1N1CCCC1
6%,CC(Oc1ccccc1)C(=O)Nc1ccc(OCc2cc(=O)n3ccsc3n2)cc1 (centres undefined)
-11%,COc1cc(OC)c(OC)cc1/C=N/NC(=O)CSc1ccccc1F
5%,O=C(CSc1nc2c([nH]c3ccccc32)c(=O)n1-c1ccc(Cl)cc1)N1CCOCC1
-12%,O=C(CS(=O)(=O)c1ccc(Cl)cc1)Nc1nnc(-c2cccs2)o1
-12%,COC(=O)c1ccc(S(=O)(=O)N(Cc2ccccc2)Cc2ccccc2)n1C
19%,COc1ccc(S(=O)(=O)NCc2cc(=O)n(C)c(=O)n2C)cc1F
0%,Nc1nc(SCC(=O)Nc2ccc([N+](=O)[O-])cc2)[nH]c(=O)c1NC(=O)c1ccc(Br)o1
-3%,O=c1cccc(-c2ccc(Br)cc2)o1
12%,COc1cccc(N2CCN(C(=O)CCn3nc(C)c(S(=O)(=O)N4CCCC4)c3C)CC2)c1
2%,O=C(NCC1CCCO1)c1nc2c(nnn2Cc2ccc(F)cc2)c(=O)[nH]1 (centres undefined)
9%,OCCC1CN(CCCc2ccccc2)CCN1CCc1ccccc1 (centres undefined)
-10%,COc1ccc(NC(=O)CSc2nc(-c3ccccc3)nc3c2Cc2c(CO)cnc(C)c2O3)cc1Cl
-17%,COc1ccc(OCC(=O)Nc2ccc(-c3nc4cc(C)c(C)cc4o3)cc2)cc1
-5%,CCC(CC)C(=O)Nc1c2c(nn1-c1ccc(C)cc1)CS(=O)(=O)C2
9%,COc1cc(NC(=O)C(Cc2ccccc2)NS(=O)(=O)c2cccs2)cc(OC)c1 (centres undefined)
32µM*,Cc1cccc(-n2c(O)c(C=Nc3ccccc3)c3ccccc3c2=O)n1
-12%,C=CCNC(=S)NC1CC(C)(C)NC(C)(C)C1
-4%,Cc1ccc(CC2C(=O)N(c3cc(Cl)ccn3)C(=O)C2C)cc1 (centres undefined)
0%,CCOC(=O)C1(C(=O)OCC)NC(=O)CC1C (centres undefined)
-12%,CC(=O)C1C(c2ccc(Cl)cc2)c2c(noc2C)CC1(C)O (centres undefined)
-6%,CC(C)(C)NC(=O)C(OC(=O)c1cccs1)c1ccccc1 (centres undefined)
4%,O=C(Nc1ccc2c(c1)OCO2)c1ccc2c(c1)S(=O)(=O)c1ccccc1C2=O
?,CCN1C/C(=C/c2ccc(N3CCOCC3)cc2)C(=O)/C(=C/c2ccc(N3CCOCC3)cc2)C1
3%,C=CCCCCCCCCC(=O)O
-22%,CC1(C)C(=O)Nc2ccccc2N1C(=O)COC(=O)CCSc1ccccc1

Sorted by length of the SMILES (highest first): 7 of the compounds above
VDR inh,structure
4%,O=C(Nc1ccc2c(c1)OCO2)c1ccc2c(c1)S(=O)(=O)c1ccccc1C2=O
32µM*,Cc1cccc(-n2c(O)c(C=Nc3ccccc3)c3ccccc3c2=O)n1
-12%,CC(=O)C1C(c2ccc(Cl)cc2)c2c(noc2C)CC1(C)O (centres undefined)
-6%,CC(C)(C)NC(=O)C(OC(=O)c1cccs1)c1ccccc1 (centres undefined)
-12%,C=CCNC(=S)NC1CC(C)(C)NC(C)(C)C1
0%,CCOC(=O)C1(C(=O)OCC)NC(=O)CC1C (centres undefined)
3%,C=CCCCCCCCCC(=O)O

(next part)
VDR inh,structure
12%,COc1ccc(OCC(=O)Nc2cc(-c3nn(C)c(=O)c4ccccc34)ccc2OC)cc1
-5%,O=C(Cn1nc(C(F)(F)F)c2c1CCCC2)Nc1ccc(Br)cc1
-11%,CN(C)CCCN(C(=O)c1ccco1)c1nc2cc3c(cc2s1)OCO3
-3%,CCn1c(CNC(=O)c2ccco2)nnc1SCC(=O)Nc1cc(F)ccc1C
-15%,Cc1nc(N2CCN(C(=O)c3ccco3)CC2)c(C#N)c2c1CCCC2
10%,COc1cccc(/C(C)=N/Nc2ccc(S(=O)(=O)N3CCCCC3)cn2)c1
14%,CCCCN(CCCC)S(=O)(=O)c1ccc2oc(C(=O)NCc3ccccc3)c(C)c2c1
?,COc1cc(C2c3c(oc4ccccc4c3=O)C(=O)N2Cc2ccccc2Cl)ccc1O (centres undefined)
-7%,COC(=O)CCCC1=CC2=CC(=O)C(C)(OC(=O)c3cccs3)C(=O)C2=CN1CC1CC1 (centres undefined)
13%,CC(C)C[C@H](NC(=O)Nc1cccc(C(F)(F)F)c1)C(=O)O
5%&-17%,COc1cccc(N2CCN(C(=O)C3CCN(S(=O)(=O)c4ccc5c(c4)oc(=O)n5C)CC3)CC2)c1
-10%,Cc1cccc([C@@H]2[C@@H]3C(=O)N(Cc4ccccc4)C(=O)[C@@H]3[C@]3(Cc4ccc(Cl)cc4)C(=O)N(c4ccc(Br)cc4)C(=O)N23)c1
-5%,O=C(/C=C/c1ccco1)N(c1ccccn1)c1ccccn1
-2%,COc1cccc(Cn2c(CNC(=O)Cc3cccc(C)c3)nc3cccnc32)c1
2%,CC1(C)CC(=O)C(C=Nc2ccc3[nH]ncc3c2)=C(O)C1
-16%,O=C(OC1CCCCC1=O)c1cc(Cl)ccc1[N+](=O)[O-] (centres undefined)
-9%,CCc1ccc(-n2c(=O)c3c(C)c(C)sc3n(CC(=O)NCC3CCCO3)c2=O)cc1 (centres undefined)
-17%,Cc1ccc2c(c1)N(CC(=O)NCCCN1CCOCC1)C(=O)c1cccnc1O2
9%,O=C(CSc1cn(CC(=O)N2CCCC2)c2ccccc12)Nc1ccccc1C(F)(F)F
7%,O=C(CCNS(=O)(=O)c1ccccc1)NNC(=O)c1cccc(Cl)c1
8%,CCN(CC)S(=O)(=O)c1cc(-c2ccc(=O)n(C(C)C(=O)Nc3cccc(C#N)c3)n2)ccc1C (centres undefined)
1%,Cc1ccc(C(=O)N/C(=C\c2cccs2)C(=O)N2CCOCC2)cc1C
25%,Cc1ccsc1/C=N/NC(=O)CO
3%,FC(F)(F)c1ccccc1-c1nc(Nc2ccncc2)c2ccccc2n1
-18%,CCc1ccc(N2C(=O)CN(Cc3cccs3)C2=S)cc1
33%[activator],CCc1cc(CNC(=O)c2ccc3nc(Cc4ccc(OC)c(OC)c4)oc3c2)on1
-13%,CCOC(=O)c1cnc(-n2nc(C)cc2C)nc1NCCc1ccccc1
-20%,Cc1cccn2c(=O)c3cc(C(=O)N4CCN(C(=O)c5ccco5)CC4)n(C)c3nc12
-1%,CCN(CC)S(=O)(=O)c1ccc2oc(Nc3ccc(OC)cc3OC)nc2c1

With a hit mark in VDR inh, among the entries above:
VDR inh,structure
32µM*,Cc1cccc(-n2c(O)c(C=Nc3ccccc3)c3ccccc3c2=O)n1

Compound activity (PubChem)
